# H5N1 antiviral: MDCK cell protection from H5N1 avian flu; cytopathic effect, luminescence, 72 h; active compounds read high; no value below 0 was filed and about half of the inactive calls have no number; reference of the scale not given here; inhibition, % at 50 µM; 0.07% of 96,000 active; in the data active means inhibition above about 25%
# * hit, by the source's call; i = inactive. These rows are one share of the data; rates above refer to the full screens.
SMILES,H5N1 antiviral
CC1CCCC(N2C(=O)NC(NC(=O)c3ccco3)(C(F)(F)F)C2=O)C1C (stereo unspecified),0.5
O=C(COC(=O)c1ccco1)Nc1ccc(Br)cc1,i
O=c1oc(-c2ccccc2)nc2c1cnn2-c1ccccc1,i
COc1ccc(OC)c(NC(=O)NCc2ccc(F)cc2)c1,1.1
Cc1ccc2c(c1)C1(SCCS1)C(=O)N2,i
O=C(COC(=O)c1cc(-c2cccs2)nc2ccccc12)NCc1ccco1,i
CCCCOc1ccc(C(=O)N2CCCC2C(=O)O)cc1 (stereo unspecified),i
Cc1cccc(NCc2nc(-c3ccccc3)no2)c1,0.5
CCOC(=O)C1=C(C)NC(=O)NC1C1CC=CCC1 (stereo unspecified),0.3
Cn1cccc1Cc1nnc(SCC(=O)Nc2ccc(Cl)cc2)n1-c1ccc(F)cc1,i
CCC(C(=O)O/N=C(\N)c1ccccc1)c1ccccc1 (stereo unspecified),0.5
CCCn1c(SCC(=O)c2cc(C)ccc2C)n[nH]c1=O,i
O=C(Nc1ccccc1C(=O)O)c1ccccc1,0.2
CCOC(=O)C1CCCCN1Cc1ccc(OC)c(OC)c1OC (stereo unspecified),i
O=C(c1ccc(CS(=O)(=O)c2ccccc2)o1)N1CCC2(CC1)OCCO2,1.9
Cn1c(=O)c2c(SCc3cccnc3)nc(C3CC3)nc2n(C)c1=O,4.0
CCOC(=O)c1ccc(N2C(=O)c3n[nH]c(C)c3C2c2ccc(O)cc2)cc1 (stereo unspecified),i
Cc1cccc(C(=O)N/N=C/c2ccc3c(c2)OCO3)n1,0.4
Cc1ccccc1CSCC(Nc1ccc(C(=O)O)cc1[N+](=O)[O-])C(=O)O (stereo unspecified),1.7
CCn1c2ccccc2c2cc(NC(=O)CSc3nnc(-c4cccc(C)c4)o3)ccc21,0.5
CCN(CC)C(=O)C1CCCN(Cc2ccc(OC)c(C)c2)C1 (stereo unspecified),0.5
CCC1CCCCN1CCCNC(=O)C1CCC(=O)N1Cc1ccc(C)cc1 (stereo unspecified),i
CC(=O)CSc1ncnc2nc[nH]c12,0.4
COC(=O)c1scc(C)c1N/N=C(\C)c1ccc(F)cc1F,22.8
CCCCS(=O)CC(COCc1ccccc1)OC(=O)CSc1nc(C)cc(C)n1 (stereo unspecified),0.2
CC1(C)CC(N(Cc2cccs2)C(=O)c2ccco2)CCO1 (stereo unspecified),0.0
Cc1cc(NC(=O)c2ccc(COc3ccc(Cl)c(C)c3)o2)no1,i
O=C(c1cccc(S(=O)(=O)N2CCCCC2)c1)N1CCN(S(=O)(=O)c2ccc(F)cc2)CC1,i
Cc1ccc2oc(=O)c3cnn(CC(=O)N(Cc4ccco4)C4CCCCC4)c3c2c1,1.3
O=C(c1ccccc1F)N1CCN(CC2CC3C=CC2C3)CC1 (stereo unspecified),0.7

# A draw from above in order of count of non-hydrogen atoms, smallest number first:
SMILES,H5N1 antiviral
CC(=O)CSc1ncnc2nc[nH]c12,0.4
O=C(Nc1ccccc1C(=O)O)c1ccccc1,0.2
CCC(C(=O)O/N=C(\N)c1ccccc1)c1ccccc1 (stereo unspecified),0.5
COC(=O)c1scc(C)c1N/N=C(\C)c1ccc(F)cc1F,22.8
CCN(CC)C(=O)C1CCCN(Cc2ccc(OC)c(C)c2)C1 (stereo unspecified),0.5
Cc1cc(NC(=O)c2ccc(COc3ccc(Cl)c(C)c3)o2)no1,i
Cn1c(=O)c2c(SCc3cccnc3)nc(C3CC3)nc2n(C)c1=O,4.0
Cc1ccccc1CSCC(Nc1ccc(C(=O)O)cc1[N+](=O)[O-])C(=O)O (stereo unspecified),1.7
CCC1CCCCN1CCCNC(=O)C1CCC(=O)N1Cc1ccc(C)cc1 (stereo unspecified),i
CCCCS(=O)CC(COCc1ccccc1)OC(=O)CSc1nc(C)cc(C)n1 (stereo unspecified),0.2
Cc1ccc2oc(=O)c3cnn(CC(=O)N(Cc4ccco4)C4CCCCC4)c3c2c1,1.3
CCn1c2ccccc2c2cc(NC(=O)CSc3nnc(-c4cccc(C)c4)o3)ccc21,0.5
O=C(c1cccc(S(=O)(=O)N2CCCCC2)c1)N1CCN(S(=O)(=O)c2ccc(F)cc2)CC1,i

# More structures:
SMILES,H5N1 antiviral
Cc1ccc(C)c(N(C(=O)Cn2nnc3ccccc32)C(C(=O)NCc2ccco2)c2ccncc2)c1 (stereo unspecified),i
COc1ccc(CCNC(=O)c2ccco2)cc1,i
CCOC(=O)C1=C(CNC2CCCCC2)NC(=O)NC1c1cc(C)ccc1C (stereo unspecified),i
O=C1Nc2ccccc2C12OCC(COc1ccc(Cl)cc1)O2 (stereo unspecified),i
CCOc1cc(-c2cn(S(=O)(=O)c3cccc4nsnc34)nc2N)cc(OCC)c1OCC,0.5
Cc1occc1C(=O)N/N=C/c1cccnc1,i
CC(C)CNS(=O)(=O)c1ccc(CCC(=O)NCC2CCCO2)cc1 (stereo unspecified),i
Cc1sc2nc(C)n(/N=C/c3ccc(O)cc3)c(=O)c2c1C,0.9
COc1cccc(C(=O)NC(Cc2ccccc2)c2ccc3c(c2)OCCCO3)c1 (stereo unspecified),i
CN(c1cccc(NC(=O)CN(c2ccc(C34CC5CC(CC(C5)C3)C4)cc2)S(C)(=O)=O)c1)S(C)(=O)=O,15.8
O=[N+]([O-])c1cccc(S(=O)(=O)N2CCC(c3nc(-c4ccncc4)no3)CC2)c1,0.7
COCCCNc1nc2c(c(=O)[nH]c(=O)n2C)n1CC(O)COc1ccccc1C (stereo unspecified),1.0
COC(=O)c1ccc(Oc2cc(C)nc(-n3nc(C)cc3C)n2)cc1,2.0
CCc1nc(C)cn1S(=O)(=O)c1cc(Cl)c(OC)cc1Cl,0.2
O=C(NCC1CCCO1)C1c2ccccc2C(=O)N1C1CCCCCC1 (stereo unspecified),i
CCN1CCN(c2nc3sc4c(c3c(=O)n2-c2ccc(OC)cc2)CCCCC4)CC1,3.2
CCCSC1=C(C#N)C(c2ccc(OC)cc2)C2=C(CC(C)(C)CC2=O)N1 (stereo unspecified),0.2
COc1cccc2c1OCC1COc3c(c(=O)n(C)c(=O)n3C)C21 (stereo unspecified),0.1
COc1ccc(C(=O)Oc2c(C)occc2=O)cc1OC,1.0
CCN(CC)S(=O)(=O)c1cccc(NC(=O)c2cc3ccccc3o2)c1,0.2
CCOC(=O)CCNC(C)C1COc2ccccc2O1 (stereo unspecified),i
COc1ccc(S(=O)(=O)Nc2cc(C(C)C)c(O)cc2C)cc1,i
CCCCn1c(=O)c(C(=O)NCc2ccncc2)c(O)c2ccccc21,1.1
O=C1CC(c2ccc3c(c2)OCO3)c2cc3c(cc2N1)OCCO3 (stereo unspecified),1.7
CCc1cccc2c(C(=O)COC(=O)c3nn(C)c(=O)c4ccccc34)c[nH]c12,1.8
Cc1ccc(CNC(=O)CS(=O)(=O)CC(=O)O)cc1,0.6
CCOC(=O)c1cc2c(=O)n3ccccc3nc2n(CCCOC)c1=NC(C)=O,3.5
CCOc1ccc2nc(N3CCC(C(=O)N4CCN(C(=O)c5ccco5)CC4)CC3)sc2c1,0.8
COC(=O)c1c(C(=O)OC)c(C)n(Cc2ccco2)c1C,0.7
Cc1nc(SCC(=O)N(C)C2CCCCC2)[nH]c(=O)c1Cc1ccccc1,i
CCc1cccc2c(C(=O)COC(=O)c3c(C)noc3C)c[nH]c12,i
CCOc1ccc(C(=O)N(C)C2CCS(=O)(=O)C2)cc1 (stereo unspecified),i
COc1ccc(Cc2nnc(SCC(=O)NCCc3ccccc3)o2)cc1,2.1
Cc1nn(CC(=O)N2CCOCC2)c(=O)c2ccccc12,i
CCN(CC)c1nc(=S)nc(NC(C)(C)C)[nH]1,1.4
Cc1sc(NC(=O)c2ccc(Cl)s2)c(C(N)=O)c1C,i
O=C(Nc1nccs1)c1cccc(S(=O)(=O)N2CCOCC2)c1,i
COc1ccc(NC(=O)C2CC(=O)NC3=C2C(=O)CC(C)(C)C3)cc1 (stereo unspecified),i
CCNc1ccccc(C(=O)/C=C/c2ccc3c(c2)OCO3)c1=O,0.4
COc1ccc(-c2nnn(CC(=O)N(CC(=O)NC3CCCC3)c3cccc(C)c3)n2)cc1OC,0.1
O=C(NCCCN1CCN(CCCNC(=O)c2ccccc2F)CC1)c1ccccc1F,i
CCN(CC)S(=O)(=O)c1ccc(NC(=O)c2c(-c3ccccc3)noc2C)cc1,2.0
CCCOc1ccc(Cn2c(C)nc([N+](=O)[O-])c2SCC(O)COC)cc1[N+](=O)[O-] (stereo unspecified),1.9
O=c1[nH]c(=O)n(C2CCCCCC2)c(O)c1C=NCC1CCCO1 (stereo unspecified),0.5
COc1cc(NC(=O)CCc2ccccc2)nc(OC)n1,i
O=C(CCn1c(=S)[nH]c2ccccc2c1=O)NCCCN1CCCC1=O,i
CC(=O)c1ccc(NC2OC(CO)C(O)C(O)C2O)cc1 (stereo unspecified),0.1
COc1cccc(CNc2nn[nH]n2)c1OC,0.9
CCCCNC(=O)CCCCCNS(=O)(=O)c1ccc(OC)cc1,i
Cc1ccc(C2CC(=O)NC(SCc3ccccc3)=C2C#N)o1 (stereo unspecified),i
CN1CCN(c2nc3c(c(=O)[nH]c(=O)n3C)n2Cc2cccc3ccccc23)CC1,3.1
CCCCCC(=O)N1CCN(CCN=CC2=C(O)CC(c3cccs3)CC2=O)CC1 (stereo unspecified),1.1
CCOC(=O)C1CCCN(S(=O)(=O)Cc2ccccc2)C1 (stereo unspecified),1.1
CCOc1ccc(-n2c(N)c(C(=O)NCc3ccco3)sc2=S)cc1,2.7
CCCCc1c(O)nc(SCC(=O)N2CCCCC2)n(-c2ccccc2C)c1=O,1.2
COC(=O)c1cccc(NC(=O)Cc2ccc(OC)cc2)c1C,1.0
CCCCN1C(=O)c2ccccc2C1C(=O)NC1CCCC1 (stereo unspecified),0.8
Cc1ccc(C)c(NC(=O)CSc2nc3c(c(=O)n2C)SC(C)C3)c1 (stereo unspecified),1.9
O=C(O)Cc1ccc(NC(=O)c2ccc(NC(=O)c3ccco3)cc2)cc1,i
N#Cc1nc(-c2ccccc2F)oc1NC1CCCCC1,8.7

# Next section:
SMILES,H5N1 antiviral
COc1ccccc1C(=O)NNC1=C(C(=O)C(F)(F)F)CCC1,i
Cc1cccnc1NCc1ccc(O)c2ncccc12,0.1
O=C1OC(c2ccc(Br)cc2)=N/C1=C\N1CCCCC1,0.7
COC(=O)C1=C(CSc2nc3ccccc3o2)NC(=O)NC1c1cc(C)ccc1C (stereo unspecified),i
COc1ccc(OC)c(NC(=O)CC2C(=O)NCCN2C(=O)Nc2cccc(Cl)c2)c1 (stereo unspecified),0.1
COc1ccccc1NC(=O)N1CCCC(C(=O)Nc2cccc(C)c2C)C1 (stereo unspecified),i
Nc1ncc(Br)cc1S(=O)(=O)NCCC(=O)N1CCN(c2ncccn2)CC1,0.2
c1cnc2c(OCc3nc4ccccc4[nH]3)cccc2c1,1.0
COc1cccc(C2NC(C)(C(=O)O)C3C(=O)N(C(C)C)C(=O)C23)c1O (stereo unspecified),0.1
O=C(CSc1ccc(Cl)cc1)Nc1ccc(N2CCN(c3ccccc3)CC2)c(F)c1,0.5
CC1CN(C(=O)c2ccccc2Sc2ccccc2C#N)CC(C)O1 (stereo unspecified),i
COc1ccc(CCNc2nc3c(c(=O)n(C)c(=O)n3C)n2C)cc1OC,1.4
Cc1cc(C(=O)N2CCN(Cc3ccc4c(c3)OCO4)CC2)on1,0.1
COc1ccccc1N1CCN(C/C(C)=C/c2ccccc2)CC1,i
CCNC(=O)COc1cc(C)c(Cl)c(C)c1,1.6
Cc1ccc(OCC(O)CN2C(=O)NC(C)(C)C2=O)cc1C (stereo unspecified),i
Cc1cccc(Oc2cc(NC(=O)c3ccccc3)cc([N+](=O)[O-])c2)c1,i
N#Cc1nc(-c2ccc(Cl)cc2)oc1NCc1cccc2c1OCO2,0.1
COC(=O)c1ccc(NC(=O)c2cc3sccc3n2C)cc1,i
CCSc1nc2c(c(=O)n1Cc1ccccc1)SC(C)C2 (stereo unspecified),i
O=C(Nc1ccccc1)Nc1cccc(Cl)c1,0.7
CCCC(=O)N1c2ccccc2NC2=C(C(=O)CCC2)C1c1ccc(F)cc1 (stereo unspecified),i
CCN1C(=O)C2(Nc3ccccc3-c3nc4ccccc4n32)c2cc(OC)ccc21 (stereo unspecified),i
CCN1CCN(CC(=O)Nc2ccc3c(c2)OCCO3)C(=O)C1=O,2.0
CCOC(=O)c1c(NS(=O)(=O)Cc2ccccc2)sc2c1CCCC2,0.7
CC(C)(C)c1ccc(OCC(=O)NNC(=O)CCc2ccccc2)cc1,0.8
COc1ccccc1NC(=O)CSCC(N)=O,0.7
O=S(=O)(NCc1ccco1)c1cccc(S(=O)(=O)N2CCCCC2)c1,1.1
CCOC(=O)C(NCc1ccccc1OC)(NC(C)=O)C(F)(F)F (stereo unspecified),0.6
CCN(CC(=O)NCc1cccs1)c1nnnn1-c1ccccc1,i
O=C(Nc1ccc(OCC(=O)N2CCC(Cc3ccccc3)CC2)cc1)c1ccco1,i
CC(C)CCn1cnc2c(cnn2-c2ccc(F)cc2)c1=O,i
Cn1c(C(=O)NCCCN2CCOCC2)cc2c(=O)n(C)c3ccccc3c21,6.0
Cc1cc(C)n2ncc(C(=O)Nc3ccc4c(c3)OCO4)c2n1,i
COc1ccc(N(CC(=O)Nc2cccc(C)c2)S(=O)(=O)c2c(C)n[nH]c2C)cc1,0.6
O=C1C2ON(c3ccccc3)C(c3ccncc3)C2C(=O)N1c1ccc(N2CCOCC2)cc1 (stereo unspecified),i
COC(=O)c1ccc(CSc2nnc(Nc3ccc(C)cc3)s2)o1,0.5
COC(=O)c1ccc(CSc2nnc(CNC(=O)c3ccccc3F)o2)o1,1.2
C(=C1/CCCC2=C1Nc1ncnn1C2c1ccccc1)/c1ccccc1 (stereo unspecified),i
CCCCN(CC)Cc1ccc(CNC(=O)Nc2ccccc2)o1,i
